Bioassay records as filed in PubChem.
Methyltransferases – Primary Screen for Target Class Profiling of Small Molecule Inhibitors of Methyltransferases; purified enzyme, MTase-Glo SAH luminescence; stronger effect = lower value; AID 1745853, 2022; calls only at 40 µM; 25,000 tested, 3.9% active; active = -50% or lower on at least one of six enzymes; inconclusive = the cases between; inactive = as a rule above -30% on all six;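 also: enzymes were COMT GAMT GNMT HNMT NNMT and PNMT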
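Each enzyme was reacted with SAM and its substrate, with compounds tested once at 40 uM; SAH formed was read by MTase-Glo luminescence.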
Calls only; i = inactive; ? = inconclusive; + = active, no number. % is scaled to controls: 0 for no effect and ±100 for the full control effect. This is a subset; rates above refer to the full screens.

# | SMILES | Methyltransferases
1 | COC(=O)c1cc2n(n1)CCCN(C(=O)COc1ccc(C)c(C)c1)C2 | i
2 | Cc1ccc(CNC(=O)CNC(=O)C2(C)Cn3c(cc4ccccc43)C(=O)N2C)cc1 (configuration not stated) | i
3 | CC1CCCC(NC(=O)C2(C)Cn3c(nc4ccccc43)C(=O)N2CCc2ccc(Cl)cc2)C1C (configuration not stated) | i
4 | CC(=O)O[C@H]1C[C@@H](O)C(C)(C)C2C[C@@H](OC(C)=O)[C@]3(C)C(CC[C@@]4(C)[C@H](c5ccoc5)OC(=O)[C@H]5O[C@]543)[C@]21C (some centres not stated) | i
5 | COc1cccc(CN2C(=O)c3cc4ccccc4n3CC2(C)C(=O)NCC2CCCO2)c1 (configuration not stated) | i
6 | Cc1ccc(C)c(NS(=O)(=O)c2cc3c(cc2C)n(C)c(=O)n3C)c1 | i
7 | CCN1C(=O)c2cc3ccccc3n2CC1(C)C(=O)NCC(=O)NCCc1ccco1 (configuration not stated) | i
8 | CCOC(=O)C(CCc1ccccc1)NC1CCCN2CCCC(C(=O)O)N2C1=O (configuration not stated) | ?
9 | Cc1noc([C@@H]2CN(Cc3cccnc3)C[C@H]2CO)n1 | i
10 | CCOc1ccccc1NS(=O)(=O)c1ccc2[nH]c(=O)[nH]c2c1 | i
11 | Cc1ccccc1CN1C(=O)c2cc(-c3ccccc3)nn2CC1(C)C(=O)NCc1ccccc1 (configuration not stated) | i
12 | CCC(C(=O)N1CCc2onc(-c3ccc(F)c(F)c3)c2C1)n1cccn1 (configuration not stated) | i
13 | COc1ccc2cc3n(c2c1)CC(C)(C(=O)NC1CCCCCC1)N(Cc1cccs1)C3=O (configuration not stated) | i
14 | CC(=O)OCC(=O)[C@@]1(O)CC[C@H]2[C@@H]3CCC4=CC(=O)CC[C@]4(C)[C@H]3C(=O)C[C@@]21C | i
15 | Cc1cccc(CCNC(=O)CCCc2nnc3n4nc(-c5ccccc5)nc4c4ccccc4n23)c1 | i
16 | COc1cccc(CN2C(=O)c3nc4ccccc4n3CC2(C)C(=O)NC2CCCC2)c1 (configuration not stated) | i
17 | O=C(c1ccc(C(F)(F)F)cc1)N1CCC2(COc3ccncc3[S+](=O)([O-])N2)C1 (configuration not stated) | i
18 | CN(CC(=O)N1CCN(Cc2ccccc2)CC1)S(=O)(=O)c1ccc2[nH]c3c(c2c1)CCCC3 | i
19 | CCc1ccc(C2c3cccn3-c3sc4c(c3CN2C(=O)Nc2cccc(OC)c2)CCCC4)cc1 (configuration not stated) | i
20 | Cn1c(=O)n(C)c2cc(S(=O)(=O)Nc3cccc(C(=O)O)c3)ccc21 | i
21 | CCCC1c2cccn2CCN1C(=O)Nc1cc(C)cc(C)c1 (configuration not stated) | i
22 | O=C(O)CCC/C=C\C[C@@H]1[C@@H](/C=C/[C@H](O)C2Cc3ccccc3C2)[C@@H](F)C[C@@H]1O | i
23 | CCOC(=O)c1cc2n(n1)CC(C)(C(=O)NC1CCCCC1)N(c1cccc(OC)c1)C2=O (configuration not stated) | i
24 | COc1ccc(-c2nc(N3CCOCC3)cc3c2CN(Cc2ccccc2)C3=O)cn1 | i
25 | CC(=O)Nc1cccc(C(=O)N2CCC3(CC2)N=C(c2ccc(C)cc2)NO3)c1 | i
26 | Cc1cc2nn(CC(=O)Nc3ccc4c(c3)OCCO4)c(=O)n2c(Nc2ccccc2C)n1 | i
27 | CN(C)C(=O)Nc1cc(-c2ccccc2)ccc1N(C)C | i
28 | Nc1nc2c(c(N3CC[C@@H](N)C3)n1)CCCc1ccccc1-2 | i
29 | O=C(Nc1ccc(F)cc1)c1ccn2cncc2c1 | i
30 | Cc1cccc(Cn2nc3n(CC(C)C)c(=O)c4ccc(C(=O)NC5CCCC5)cc4n3c2=O)c1 | i
31 | CC(C)NC(=O)NC1CC2(CCN(C(=O)Cc3ccc(O)cc3)CC2)c2ccccc21 (configuration not stated) | i
32 | CN[C@@H](C)C(=O)N[C@H]1CN(C(=O)CC(C)C)CC[C@H]2CC[C@@H](C(=O)NC(c3ccccc3)c3ccccc3)N2C1=O | i
33 | COc1ccccc1CNC(=O)C1(C)Cn2nc(-c3ccccc3)cc2C(=O)N1c1ccc(F)cc1C (configuration not stated) | i
34 | O=C(Cc1ccccc1F)Nc1cnc(-c2cccnc2)nc1 | i
35 | Nc1ncnc2c([C@@H]3N[C@H](CO)[C@@H](O)[C@H]3O)c[nH]c12 | i
36 | Cc1ccc(C(=O)N2CCC3(CC2)N=C(c2cccc(Br)c2)NO3)s1 | i
37 | O=C(c1ccc2c(=O)nc3c(-c4cccc(F)c4)n[nH]n3c2c1)N1CCN(c2ccccc2)CC1 | i
38 | COCCn1c(C(=O)OC)c(NC(=O)CC(C)C)c2cc(NC(C)CCn3cccn3)cnc21 (configuration not stated) | i
39 | Cc1cccc(C(=O)NCN2CCN(c3ccccc3C#N)CC2)c1 | i
40 | COc1ccc(-c2cc(C(=O)N3CCOC(c4ccc(F)cc4)C3)[nH]n2)cc1 (configuration not stated) | i
41 | CCOc1ccccc1CN1C(=O)c2ccc(-c3ccco3)n2CC1(C)C(=O)NC1CCCCC1 (configuration not stated) | i
42 | Cc1ccc(-c2nnc3ccc(-c4ccoc4)nn23)nc1 | ?
43 | CC1CCCC(NC(=O)C2(C)Cn3c(nc4ccccc43)C(=O)N2Cc2ccc(F)cc2)C1C (configuration not stated) | i
44 | CCc1nc2c(c(-c3ccc(O)cc3)n1)CN(Cc1ccc(NC(C)=O)cc1)CC2 | i
45 | COc1ccc(CC(=O)N[C@H]2[C@H](O)[C@H](O)C[C@@H]2c2ccccc2)cc1 | i
46 | Cc1ccc(CNC(=O)C2(C)Cn3nc(C(=O)NCCc4cccc(C)c4)cc3C(=O)N2C)cc1 (configuration not stated) | i
47 | COc1ccc(-c2nnc3n(CCc4ccccc4)c(=O)c4ccccc4n23)cc1 | i
48 | CN1C(=O)c2cc(C(=O)NCc3cccs3)nn2CC1(C)C(=O)NC1CCCCCC1 (configuration not stated) | i
49 | Cc1ccc(N2C(=O)c3cc(-c4cccs4)nn3CC2(C)C(=O)NC2CCCCC2)c(C)c1 (configuration not stated) | i
50 | O=C(Cn1ccn2nc3c(c2c1=O)CCCCC3)NCc1ccccc1Cl | i

Other entries
# | SMILES | Methyltransferases
51 | CN[C@H](CC(C)C)C(=O)N[C@H]1C(=O)N[C@@H](CC(N)=O)C(=O)N[C@H]2C(=O)N[C@H]3C(=O)N[C@H](C(=O)N[C@H](C(=O)O)c4cc(O)cc(O)c4-c4cc3ccc4O)[C@H](O)c3ccc(c(Cl)c3)Oc3cc2cc(c3O[C@@H]2O[C@H](CO)[C@@H](O)[C@H](O)[C@H]2O[C@H]2C[C@](C)(N)[C@H](O)[C@H](C)O2)Oc2ccc(cc2Cl)[C@H]1O | i
52 | COCCCN1C(=O)c2cc3ccc(OC)cc3n2CC1(C)C(=O)NC1CCCCC1 (configuration not stated) | i
53 | O=C1c2cnc(-c3ccsc3)nc2OCCN1CC1CC1 | i
54 | Cc1ccc(-c2cc(C(=O)Nc3ccc4c(c3)C(=O)N(C)C3=NCCN34)c3ccccc3n2)cc1C | i
55 | CC(=O)Nc1c2n(c3ccccc13)CC(C)(C(=O)NC1CCCCCC1)N(C1CCCCCC1)C2=O (configuration not stated) | i
56 | Cc1ccc(CSc2nnc3n(CCCOC(C)C)c(=O)c4cc(Cl)ccc4n23)cc1 | i
57 | Cc1cn2cc(C(=O)N(C)CCO)cc(N[C@@H]3CCOc4cccc(C)c43)c2n1 | i
58 | CCOCCCNC(=O)c1cc2cn(C3CC3)cc2s1 | i
59 | CN1C(=O)N(C)C2(CCN(CCc3ccccc3)C2)C1=O (configuration not stated) | i
60 | CC1(C(=O)NC2CCCC2)Cn2c(cc3ccccc32)C(=O)N1CCN1CCOCC1 (configuration not stated) | i
61 | O=C(NCCNC(=O)c1cccnc1)c1cccnc1 | i
62 | CCCn1c(=O)c2ccc(C(=O)NCC(C)C)cc2n2c(SCC(N)=O)nnc12 | i
63 | COC(=O)c1cc2n(n1)CC(C)(C(=O)NC1CCCCCC1)N(c1ccc(C)cc1C)C2=O (configuration not stated) | i
64 | Cc1ccc(CNC(=O)N2CCCC3(CCC(=O)N(CC4CC4)C3)C2)cc1 (configuration not stated) | i
65 | CCC(C(=O)NC1CC1)n1ccc2cc(S(=O)(=O)N3CCCCC3)ccc21 (configuration not stated) | i
66 | CC(=O)N(C1CCOCC1)C1CCN(S(=O)(=O)c2ccc3c(c2)OCCO3)CC1 | i
67 | Cn1c(=O)c2ccc(C(=O)NC3CCCCC3)cc2n2c(SCC(N)=O)nnc12 | i
68 | CN1CCN(CCCNC(=O)C2(CCO)CCN(Cc3ccccc3)C2)CC1 (configuration not stated) | i
69 | Cc1ccc(S(N)(=O)=O)cc1C(=O)N1CCCn2nc(C(C)O)cc2C1 (configuration not stated) | i
70 | C[C@H](CCC(=O)O)[C@H]1CC[C@H]2[C@@H]3C[C@H](O)[C@@H]4C[C@H](O)CC[C@]4(C)[C@H]3CC[C@]12C | i
71 | O=C(c1ccnc(CC2CC(=O)N(c3ccccc3)C2)c1)N1CCCCC1 (configuration not stated) | i
72 | COCC(=O)N1CCC(O)(c2csc(CN3CCc4ccccc4C3)n2)CC1 | i
73 | CC1(C(=O)NCc2ccccc2)Cn2cnc(C(=O)NCc3ccccc3Cl)c2C(=O)N1C1CC1 (configuration not stated) | i
74 | C=C1C(OC(C)=O)[C@@]23CCC4[C@](C)(C(=O)O)CCC[C@@]4(C)[C@]2(O)CC[C@H]1C3 (some centres not stated) | i
75 | Cn1c(=O)n(C)c2cc(S(=O)(=O)N(Cc3ccco3)C(=O)c3cccnc3)ccc21 | i
76 | COc1cccc(C(=O)Cn2nc3n(CCc4ccccc4)c(=O)c4ccccc4n3c2=O)c1 | i
77 | CC(C)CCNC(=O)C1(C)Cn2c(cc3ccccc32)C(=O)N1c1ccc(Cl)cc1 (configuration not stated) | i
78 | O=C(NCCCc1ccccc1)C1CCN(c2cc(C(F)(F)F)ncn2)CC1 | i
79 | COC(=O)c1cc2n(n1)CC(C)(C(=O)NC1CCC(C)CC1)N(c1cc(C)ccc1C)C2=O (configuration not stated) | i
80 | O=C(c1ccccc1)N1CCC2(CC1)C(=O)NN=C2C1CC1 | i
81 | CCOc1ccc(CNC(=O)Cn2ccc3cc(S(=O)(=O)N4CCCCC4)ccc32)cc1OC | i
82 | Cn1c(=O)c2ccc(C(=O)NC3CCCCC3)cc2n2c(=O)n(CC(=O)Nc3ccccc3F)nc12 | i
83 | COC(=O)COc1ccc2c(-c3ccccc3)cc(=O)oc2c1 | i
84 | CC(=O)Nc1ccc(C(=O)Nc2ccccc2N)cc1 | ?
85 | O=S(=O)(Cc1noc([C@@H]2C[C@@H](O)CN2CC2CC2)n1)c1ccc(F)cc1 | i
86 | COc1ccc(OC)c(CNC(=O)c2cc3n(n2)CC(C)(C(=O)NCc2ccc(F)cc2)N(C)C3=O)c1 (configuration not stated) | i
87 | O=C(O)c1cc(O)c2cccc(O)c2c1O[C@@H]1O[C@H](CO)[C@@H](O)[C@H](O)[C@H]1O | +
88 | Oc1ccc(CNc2ccccc2F)c2cccnc12 | +
89 | Cc1c(Cl)cccc1N1C(=O)c2cc(C3CC3)nn2CC1(C)C(=O)NC1CCCCCC1 (configuration not stated) | i
90 | CC(C)=C(C#N)C(=O)N1CCCN(c2cc(NCCC(=O)O)nc(-c3ccccn3)n2)CC1 | ?
91 | CC1(C(=O)NC2CCCCCCC2)Cn2c(cc3occc32)C(=O)N1CCN1CCCCCC1 (configuration not stated) | i
92 | Cc1ccc(Cn2c(=O)c3ccccc3n3c(SCC(=O)Nc4ccc(Cl)cc4)nnc23)cc1 | i
93 | COc1ccc(-c2cc3n(n2)CC(C)(C(=O)NCc2ccccc2)N(C2CC2)C3=O)cc1 (configuration not stated) | i
94 | CCOc1ccccc1NC(=O)Cn1c(=O)oc2cc(S(=O)(=O)NCc3ccccc3)ccc21 | i
95 | Cc1ccc(NC(=O)N2CCn3cccc3C2C)cc1F (configuration not stated) | i
96 | O=C(Nc1ccccc1Cl)N1CCn2cccc2C1Cc1ccccc1 (configuration not stated) | i
97 | CCOC(=O)c1cn(C2CN(S(=O)(=O)Cc3ccccc3)C2)nn1 | i
98 | Cc1cc2[nH]c(=O)[nH]c2cc1S(=O)(=O)NCCc1ccc(Cl)cc1 | i
99 | CC(C)C[C@H](NC(=O)[C@H](O)[C@H](N)Cc1ccccc1)C(=O)O | i
100 | COc1ccc(C2OCC3C(c4cc(OC)c5c(c4)OCO5)OCC23)cc1OC (configuration not stated) | i

Compounds above that contain a furan ring, fused or not:
# | SMILES | Methyltransferases
4 | CC(=O)O[C@H]1C[C@@H](O)C(C)(C)C2C[C@@H](OC(C)=O)[C@]3(C)C(CC[C@@]4(C)[C@H](c5ccoc5)OC(=O)[C@H]5O[C@]543)[C@]21C (some centres not stated) | i
7 | CCN1C(=O)c2cc3ccccc3n2CC1(C)C(=O)NCC(=O)NCCc1ccco1 (configuration not stated) | i
41 | CCOc1ccccc1CN1C(=O)c2ccc(-c3ccco3)n2CC1(C)C(=O)NC1CCCCC1 (configuration not stated) | i
42 | Cc1ccc(-c2nnc3ccc(-c4ccoc4)nn23)nc1 | ?
75 | Cn1c(=O)n(C)c2cc(S(=O)(=O)N(Cc3ccco3)C(=O)c3cccnc3)ccc21 | i
91 | CC1(C(=O)NC2CCCCCCC2)Cn2c(cc3occc32)C(=O)N1CCN1CCCCCC1 (configuration not stated) | i

(cont.)
# | SMILES | Methyltransferases
101 | COc1ccccc1NC(=O)CSc1nnc2n(C)c(=O)c3ccc(C(=O)NC4CCCC4)cc3n12 | i
102 | CCCn1c(=O)c2cc(Cl)ccc2n2c(SCC(=O)Nc3ccc(OC)c(OC)c3)nnc12 | i
103 | COc1ccc(-c2nc(C(C)C)nc3c2CCN([S+](=O)([O-])c2c(C)noc2C)CC3)cc1 | i
104 | CC1(C(=O)NC2CCCCCCC2)Cn2c(cc3occc32)C(=O)N1Cc1ccccc1F (configuration not stated) | i
105 | CCCn1c(=O)c2ccccc2n2c(=O)n(CC(=O)NCc3cccc(OC)c3)nc12 | i
106 | CC(C)(O)C1CCC(C)(C2CCC3(C)C4CCC5C(C)(C(=O)OC6OC(CO)C(O)C(O)C6O)C(O)CC(O)C56CC46CCC23C)O1 (configuration not stated) | i
107 | CCOc1ccccc1C(=O)NC1CC(=O)N(CCc2ccc(F)cc2)C1 (configuration not stated) | i
